GLA inh pH 4.5: qHTS Assay for Inhibitors of Human alpha-Galactosidase at pH 4.5. 230,000 tested, under 10 active. activity change, negative = inhibition, % at 105 µM. purified enzyme, 4-MU-alpha-Gal fluorescence, pH 4.5; inconclusive = small, poorly fitted or top-dose-only inhibition, or a rising curve; inactive = flat fitted curve, though single readings scatter; no compound was filed as active;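 also: 0% = full activity with enzyme and -100% = basal without enzyme; dose as in the result columns while the protocol names 77 µM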
Target sequence (P06280 whole entry, looked up): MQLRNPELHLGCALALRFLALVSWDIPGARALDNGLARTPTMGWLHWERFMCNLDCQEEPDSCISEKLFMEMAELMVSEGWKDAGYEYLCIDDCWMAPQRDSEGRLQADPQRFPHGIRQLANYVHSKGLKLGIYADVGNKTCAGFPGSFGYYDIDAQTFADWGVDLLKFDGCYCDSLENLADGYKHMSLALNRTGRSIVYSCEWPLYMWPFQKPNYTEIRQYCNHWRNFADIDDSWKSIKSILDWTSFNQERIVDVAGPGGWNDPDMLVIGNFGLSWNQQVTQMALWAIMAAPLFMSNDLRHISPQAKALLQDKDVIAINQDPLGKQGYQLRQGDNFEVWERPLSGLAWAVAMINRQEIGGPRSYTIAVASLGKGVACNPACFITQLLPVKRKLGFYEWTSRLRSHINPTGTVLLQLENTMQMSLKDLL
Rango-impB inh: qHTS Assay for Inhibitors of Rango (Ran-regulated importin-beta cargo) - Importin beta complex formation. hit rate 0.031% among 340,000. AID 540263, 2011. Rango CFP/YFP FRET sensor + importin beta, 45 min. Potency, µM (highest dose often 92.2 µM), inactives show at the top dose inhibition of complex formation; active = rising FRET ratio curve, often small or poorly fitted; inconclusive = mostly compound fluorescence or quenching in the first reads; inactive = flat curves in all reads;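 also: potency is read from the fitted curve at half-maximal effect; 0% = DMSO wells and 100% = buffer wells lacking importin beta; nearly all actives have a fitted effect of over 15% in size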
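FRET biosensor (snurportin 1 IBB flanked by EYFP and cerulean), 50 nM, with compound 5 min, then 0.125 microM importin beta in PBS, 1 mM DTT, 0.02% Tween-20, 0.1% BSA. CFP/YFP ratio read after 45 min at room temperature; pre-read flags interference.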
miR-21 reporter: qHTS Assay for Modulators of miRNAs and/orActivators of miR-21; HeLa miR-21 FLuc reporter, luciferase, 48 h; Potency, µM (highest dose often 38.3 µM), for the others: at the top dose reporter change, positive = more light; 340,000 tested, under 10 active; AID 2288, 2010; active = well fitted rising curve with a large enough effect; inconclusive = small, poorly fitted or top-dose-only effect; inactive = no such curve, though single readings can be large or run the other way;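 also: % of control where 0% means no effect; miR-21 action dims this reporter so a rising signal means less miR-21 action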
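Using DMEM plus 10% FBS, HeLa miR-21-FLuc cells are incubated with test compounds (final up to about 40uM) for 48 hours; firefly luciferase signal is then imaged following reagent-mediated lysis.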
Rango release inh: qHTS Assay for Inhibitors of RanGTP induced Rango (Ran-regulated importin-beta cargo) - Importin beta complex dissociation. Snurportin-1 (Homo sapiens) + GTP-binding nuclear protein Ran (Homo sapiens) + Importin …. Biochemical FRET Rango-importin beta, RanGTP-induced dissociation. Potency, µM (highest dose often 46.1 µM), without a hit: at the top dose activity change, negative = inhibition. hit rate 0.071% among 340,000; active means falling FRET ratio curve, often poorly fitted, with flat reads before Ran was added; inconclusive means other falling curves, or compound fluorescence or quenching; inactive means flat or rising ratio curve;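 also: potency is read from the fitted curve at half-maximal effect; % of control where 0% means no effect; nearly all actives have a fitted effect of over 45% in size; -100% = wells without RanGTP and RCC1; the record marks most hits as doubtful in a second field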
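Rango/importin beta premix (0.1/0.25 uM final), PBS + 1 mM DTT + 0.02% Tween-20 + 0.1% BSA; cpd 5 min RT; FRET pre-read; + RanGTP-RCC1 (0.6 uM Ran, 2 mM GTP, 0.2 uM RCC1); 45 min RT; FRET post-read, ex 430, em 486/530 nm.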
Starred values were filed as active, the others as inactive; ? = inconclusive; . = no result given; & = joins results of further samples.

SMILES	GLA inh pH 4.5	Rango-impB inh	miR-21 reporter	Rango release inh
COC(=O)c1cc(C(=O)Nc2ccc(C)cn2)cc([N+](=O)[O-])c1	-1.1	0.9%	-2.7%	-11.3%
CC(=O)Nc1ccc2c(c1)C(=O)c1ccc(Cl)cc1-2	.	0.0%	.	0.2%
CC1CCN(CC(=O)Nc2cccc([N+](=O)[O-])c2)CC1	2.1	0.9%	1.8%	?
CC(=O)N(C1=C(N)C(=O)c2ccccc2C1=O)c1ccccc1	.	-2.8%	17.9%	5.2%
COCCCNC(=O)c1cn(CC(C)C)c(=O)c2c1c1ccccc1n2C	-21.2	?	4.0%&7.3%	-21.5%
Cc1ccc(O)c(CP(=O)(c2ccccc2)c2ccccc2)c1	-1.7	1.6%	-1.6%	-4.1%
COc1ccc(CCNC(=O)CCc2nnc(Cc3ccc4c(c3)OCO4)o2)c(OC)c1	.	-0.5%	-3.0%	-10.2%
Cc1cc(Cl)ccc1OC(C)C(=O)Nc1ccc(S(=O)(=O)N2CCOCC2)cc1 (stereo not drawn)	.	0.5%	.	0.5%
COc1ccc(Nc2c([N+](=O)[O-])ccc3c2=NC2(CCCCC2)N=3)cc1	-1.0	-1.0%	-10.0%	3.7%
Cc1cnc(CNC(=O)C2CCC(=O)N(CCc3ccc(Cl)cc3)C2)cn1 (stereo not drawn)	.	-2.1%	-4.1%	-3.0%
Cc1cccn2c(=O)c3cc(C(=O)NCc4cccnc4)c(=N)n(C)c3nc12	-11.6	.	0.0%	.
O=C(NCc1ccco1)NCC(F)(F)F	8.0	8.7%	-3.8%	2.5%
CCC(=O)c1ccc(OCC(O)CNC(C)c2ccccc2)cc1 (stereo not drawn)	0.3	?	-1.4%	0.2%
CC(C)OCCCN1CN(S(=O)(=O)c2cccc(Cl)c2)c2nc3ccccc3nc21	3.9	?	-24.0%	-11.6%
Cc1cccc(OCCNc2ccc([N+](=O)[O-])cn2)c1	-4.8	-0.7%	-4.4%	-2.5%
O=C(NNC(=O)c1cccc2ccccc12)c1cccc(F)c1	.	2.5%	.	2.2%
COc1ccc(C)cc1NC(=O)C1CCCN(S(=O)(=O)c2ccc3c(c2)CCCN3C(C)=O)C1 (stereo not drawn)	.	-1.5%	3.6%&0.6%	1.0%
CC(=O)c1cccc(N(C(=O)CNC(=O)c2ccco2)C(C(=O)NCC2CCCO2)c2ccccc2)c1 (stereo not drawn)	.	-0.1%	-2.7%	1.3%
Nn1c(SCC(=O)N2CCOCC2)nnc1-c1cccnc1	.	0.0%	.	?
O=C(CSc1ncn[nH]1)Nc1nc(-c2ccccc2)ns1	-1.2	-5.7%	-35.2%	5.9%
Cc1cc(C)n2nc(C(=O)OCC(=O)NC(=O)c3ccccc3)nc2n1	.	-0.1%	.	9.5%
Cc1c(N2C(=O)c3ccc4c5c(ccc(c35)C2=O)CC4)c(=O)n(-c2ccccc2)n1C	7.0	-1.0%	-3.3%	-6.0%
COc1ccc(NC(=O)N(Cc2cc3cc(C)ccc3[nH]c2=O)CC2CCCO2)cc1 (stereo not drawn)	-2.1	0.4%	?	1.5%
CCC(=O)c1ccc(OCC(O)CN2CC(C)OC(C)C2)cc1 (stereo not drawn)	9.5	0.8%	0.5%	?
COC(C[C@H](O)[C@H](C)[C@@H](O)COCc1ccccc1)OC	7.9	-5.5%	1.2%	0.3%
CCn1ncc(C2=NOC(C(=O)Nc3cnn(C45CC6CC(CC(C6)C4)C5)c3)C2)c1C (stereo not drawn)	4.1	0.2%	4.9%	4.0%
CC1(NC(=O)NCc2ccccc2)CCS(=O)(=O)C1 (stereo not drawn)	1.2	-2.4%	-2.8%	5.7%
CC(C)(C)NC(=S)N1CCC(C(=O)c2ccc(F)cc2)CC1	.	-1.0%	-0.1%	-4.9%
O=c1c2nncn2c2cccnc2n1CCNc1ncc(C(F)(F)F)cc1Cl	0.8	5.5%	-13.4%	-5.5%
CCSc1nnc(NC(=O)c2cccnc2)s1	-0.8	-2.6%	-27.1%	0.9%
CC(=O)NC(=S)Nc1ccc(NC(=O)c2cccs2)cc1	-6.5	-0.7%	-56.0%	28.5%
COc1ccc(-c2nc(SCC(=O)N3CCOCC3)n[nH]2)cc1	1.0	-0.1%	-11.8%	-28.5%
COc1ccc(S(=O)(=O)N2CCCC2CNC(=O)C(=O)NCc2ccccc2)cc1 (stereo not drawn)	.	-5.1%	.	5.1%
CN1C(=O)N(C)C2(c3ccccc3)Nn3c(s/c(=C/c4ccco4)c3=O)=NC12c1ccccc1 (stereo not drawn)	-2.1	-5.2%	-1.8%	1.0%
COc1ccc(-n2nc3c(c2NC(=O)c2ccc4c(c2)OCO4)CS(=O)(=O)C3)cc1	.	0.8%	1.4%	14.9%
O=C(NCCc1cnccn1)C1CCC(=O)N(Cc2ccc(Cl)cc2)C1 (stereo not drawn)	.	-0.8%	-1.8%	0.9%
COc1ccc2cc(C(=O)N3CCN(c4ccccc4F)CC3)[nH]c2c1	.	-4.5%	-7.9%	4.6%
COc1ccc(NC(=O)c2cc3c(s2)CCC(C)C3)cc1S(=O)(=O)N1CCOCC1 (stereo not drawn)	-26.8	-3.3%	29.8%	1.4%
CCCOC(=O)Nc1ccc(S(=O)(=O)Nc2ncccn2)cc1	3.1	4.0%	-6.8%	-11.9%
c1ccc(COC2CCCN(Cc3nc(-c4cnccn4)no3)C2)nc1 (stereo not drawn)	20.8	0.4%	1.8%	-18.4%
Cc1cc(=O)n2[nH]c(N3C(=O)CCC3=O)nc2n1	3.9	0.3%	-0.7%	23.6%
CC(=O)N(c1ccc(C)cc1)C1C=CS(=O)(=O)C1 (stereo not drawn)	-20.2	-2.7%	-3.4%	1.3%
O=C(Oc1ccc2c(-c3ccccc3)cc(=O)oc2c1)c1cccs1	-3.3	?	-8.3%	?
CCOC(=O)C1CCCN(Cc2c(C(=O)N3CCOCC3)nc3ccccn23)C1 (stereo not drawn)	-1.2	0.3%	0.9%	-10.5%
COc1ccc(NC(=O)CCCN2C(=O)C3C4C=CC(C4)C3C2=O)c(OC)c1 (stereo not drawn)	-4.6	0.3%	-2.9%	-5.6%
COC(=O)Nc1ccc(S(=O)(=O)n2cnc3ccccc32)cc1	-2.1	0.0%	0.2%	-13.6%
O=C(O)c1cccc2c3c([nH]c12)CCCC3	.	0.0%	2.7%	-9.2%
COc1cccc(N2C(=NC(=O)C3CCCCC3)SC3CS(=O)(=O)CC32)c1 (stereo not drawn)	.	-3.4%	-3.5%	1.9%
COc1ccc(CN2CCN(c3ccc(F)cc3)CC2)c(OC)c1OC	6.2	-1.7%	1.3%	9.5%
CCn1c(=O)n(CC(=O)Nc2cc(OC)c(OC)c(OC)c2)c(=O)c2ccccc21	-2.0	1.3%	-1.7%	-5.0%
O=S(=O)(Nc1cccc(-n2cnnn2)c1)c1cc(Br)ccc1Br	.	2.1%	1.3%	-18.6%
CN(C)C(=O)C[n+]1ccc(C(N)=O)cc1	-2.1	-0.3%	-0.3%	2.9%
COc1ccc(NC(=O)CN2CC(C)OC(C)C2)cc1Cl (stereo not drawn)	-5.4	0.2%	-5.5%	-1.7%
CC(NC(=O)c1ccco1)C(=O)OC(C)C(=O)NCc1ccccc1 (stereo not drawn)	2.4	0.4%	0.7%	6.7%
O=c1oc2cc(O)ccc2cc1S(=O)(=O)c1ccccc1	.	-4.7%	0.6%	?
COc1ccc(C(=O)NCC(c2ccccc2)N2CCCC2)cc1S(=O)(=O)N1CCOCC1 (stereo not drawn)	.	0.7%	.	-7.4%
Cc1cc(OCCCC(=O)N2CCCCC2)cc(C)c1Cl	-3.9	-1.1%	-26.5%	10.8%
Cc1ccc(C(=O)NCCNS(=O)(=O)c2ccccc2[N+](=O)[O-])cc1	.	4.7%	0.2%	13.2%
CC(=O)Nc1ccc(S(=O)(=O)N2CCCC2)cc1	.	-1.4%	0.5%	-23.2%
O=C(Nc1cccc(-c2cn3ccccc3n2)c1)c1cccc(Cl)c1	-5.9	3.5%	20.4%	0.1%
Following part:
SMILES	GLA inh pH 4.5	Rango-impB inh	miR-21 reporter	Rango release inh
Cc1cc(C(=O)OC(C)C(=O)Nc2cccc(S(=O)(=O)N3CCOCC3)c2)c(C)o1 (stereo not drawn)	-13.1	2.4%	-7.5%	0.6%
CCCc1cc(=O)[nH]c(SCC(=O)c2[nH]c(C)c(C(=O)OCC)c2C)n1	1.9	-1.7%	-11.9%	-3.0%
COc1ccc(NC(=O)COC(=O)c2ccc(N3CCCC3=O)cc2)cc1OC	-0.4	0.7%	-1.0%	-3.2%
CCC1=C(OC(=O)N(CC)CC)N2C(=O)OC(=NCCOC)[C@]2(Cc2ccccc2)[C@H]2C1=CC[C@H]1C(=O)N(CC)C(=O)[C@H]12	0.3&-7.7	-0.6%	-0.2%	-10.0%
O=C(N/N=C/c1ccsc1)c1ccc2ccccc2n1	-18.5	-0.6%	-32.8%	7.5%
O=C(NCCN1CCOCC1)c1ccc(CSCc2cccc(Cl)c2)o1	8.1	1.4%	0.1%	13.1%
CCOC(=O)C1CCN(C(=O)C(=O)c2cn(CC(=O)N3CCCCCC3)c3ccccc23)CC1	.	3.3%	2.9%	-6.2%
Cc1nc2nc(N)nc(OCc3ccccc3)c2nc1C	.	-5.1%	.	-11.6%
CCOc1ccccc1/C=N/Nc1nc2ccccc2o1	.	-1.5%	-16.8%	-0.5%
COC(=O)C1CCN(S(=O)(=O)c2c(C)n(C)c(=O)n(C)c2=O)CC1	2.6	4.4%	-2.1%	?
CCCc1c(C)nc2c(OC)cccc2c1SCC(=O)O	-0.5	-1.2%	-0.1%	3.8%
NC(=O)CC(NC(=O)Cc1cccc2ccccc12)c1ccc(NCCc2ccc(F)cc2)c([N+](=O)[O-])c1 (stereo not drawn)	3.5	0.3%	0.6%	4.9%
COC(=O)C1CN(S(=O)(=O)c2ccccc2)CCN1S(=O)(=O)c1ccccc1 (stereo not drawn)	1.1	2.5%	-2.5%	-7.6%
COc1ccc(C(=O)OCC(=O)NC2CC2)cc1S(=O)(=O)N(C)Cc1ccccc1	.	2.4%	.	0.4%
COCCNC(=O)/C(C#N)=C/C=C/c1ccccc1	1.2	-1.5%	-2.1%	-10.0%
Cc1[nH]c(=O)[nH]c1C(=O)CCCCC(=O)OCC(=O)Nc1ccccn1	2.0	-0.7%	-3.9%	?
O=C(NC(=S)Nc1ccccc1O)c1ccc(Cl)cc1Cl	-1.5	4.7%	-26.1%	5.4%
Cc1ccc(C23CC4CC(CC(C(=O)NC(C)C)(C4)C2)C3)cc1	.	3.2%	12.8%	-1.1%
O=C(Cc1ccccc1)CC1(O)C(=O)Nc2ccccc21 (stereo not drawn)	-2.0	-4.4%	-2.3%	-2.7%
Cc1c(/C=N\NC(=O)c2cccc(F)c2)cnn1C	-7.9	1.6%	-24.9%	14.4%
COc1ccc(-n2c(N)c(-c3nc4ccccc4n3C)sc2=S)cc1	6.7	?	-14.3%	?
COc1cccc(C(=O)Nc2ccc(S(=O)(=O)NCc3ccco3)cc2)c1	1.7	-2.5%	-0.6%	-17.6%
CCOC(=O)c1c(CN2CCOCC2)oc2ccc(OC)cc12	4.4	-3.1%	-2.7%	-1.1%
CCCN(C(=O)CSc1ncccn1)C1CCS(=O)(=O)C1 (stereo not drawn)	.	-1.6%	.	3.2%
Fc1ccccc1Cc1nnc2n1N=C(c1ccc(Cl)cc1)CS2	-2.3	-0.2%	-9.9%	-2.2%
O/N=C1\CCSc2ccc(F)cc21	6.3	-0.3%	-0.7%	10.1%

Profiles, looked up by structure:
COc1ccc(-n2c(N)c(-c3nc4ccccc4n3C)sc2=S)cc1 in the list: GLA inh pH 4.5 = 6.7; Rango-impB inh = ?; miR-21 reporter = -14.3%; Rango release inh = ?
Fc1ccccc1Cc1nnc2n1N=C(c1ccc(Cl)cc1)CS2 in the list: GLA inh pH 4.5 = -2.3; Rango-impB inh = -0.2%; miR-21 reporter = -9.9%; Rango release inh = -2.2%

Assay outcomes (PubChem)

Only part of the results is shown; count on the stated rates, not on these rows.
